Screens (PubChem BioAssay)
T cruzi inh: blocks replication of Trypanosoma cruzi | 300,000 tested, 1.4% active | T. cruzi beta-gal in NIH3T3, luminescence, 90 h | inhibition, % (test concentration not listed) | AID 1885;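 active = mean inhibition across valid replicates above about 55%, limit read from the data; inconclusive = mean below that limit but half or more replicates reach it; inactive = mean below it, under half of replicates reach it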;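 note: signal also drops with host cell toxicity which is not excluded here; 0% = plate median of DMSO wells and 100% = zero luminescence signal; higher percent means less beta-gal luminescence so fewer parasites; stock transfer was 50 nL into about 50 µL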
ALR inh: human ALR oxidase inhibition via reduced H2O2. 290,000 tested, 3.8% active. P55789. purified ALR, DTT oxidation, H2O2 HRP-luminol luminescence. inhibition, % (concentration not given with the values);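 active = mean and each replicate at 75% or more; inconclusive = only one of the two met; inactive = neither met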;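 note: stock transfer was 7.5 nL into about 7.5 µL; 0% = neutral wells and 100% = wells with inactivated enzyme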
Beta apoptosis: beta cell apoptosis inhibition; 300,000 tested, 0.8% active; protection from apoptosis, % (test concentration not listed); INS-1E cytokine-induced death, ATP luminescence, 48 h; percent of positive-control rescue, neutral wells zero;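 active = all replicates at 75% or more, or half of them and the mean; inconclusive = half reach 75% but not the mean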;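 note: 0% = cytokine-treated negative control wells and 100% = positive control rescue; higher means more ATP so stronger rescue from cytokine killing; wells of about 40 µL received 100 nL stock; the first replicate is given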
A1 inh: inhibitors of the anti-apoptotic protein A1, read as caspase activation. MEF A1-2A-BIM cells, Caspase-Glo 3/7 luminescence, 3 h; percent of clofoctol response, vehicle zero. caspase activation, % (test concentration not listed). 330,000 tested, 0.066% active. AID 2462;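 active = over half of replicate activation scores above 10%, or exactly half above 10 with the replicate mean above 10; inconclusive = replicate mean below 10 yet half the replicates above 10; inactive = over half of replicates below 10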;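 note: wells of about 30 µL received 50 nL stock; many hits fall short of the cut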
rRNA inh HTS: inhibitors of bacterial rRNA selective over humanized ribosomes; GFP signal change (wild-type ribosome), % (concentration not given with the values); 350,000 tested, 1.6% active; AID 720706; E. coli WT GFP vs humanized-ribosome RFP mutants, fluorescence, 24 h; active compounds read low; DMSO median 0, no signal -100;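 active = significant combined selectivity score with lowered wild-type GFP, culture density cut under 30%, mutant RFP and density less affected; inactive = any of these conditions unmet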; note: one replicate is shown; some compounds called inactive have numbers as strong as hits
LANA-H2A inh: blocks KSHV LANA binding to histone H2A/H2B. Q9QR71. cell-free LANA-H2A/H2B peptide, fluorescence polarization. inhibition, % (test concentration not listed). 320,000 tested, 0.6% active. AID 2629; in the data active = inhibition mostly above about 10%, no sharp cut-off; inactive = mostly below about 6.7%;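 note: stock transfer was 7.5 nL into about 10 µL; 0% = median of vehicle wells and 100% = median of positive control wells; one replicate is shown; the record names a cut of 25% in any replicate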
Target sequence (Q9QR71 whole entry, looked up): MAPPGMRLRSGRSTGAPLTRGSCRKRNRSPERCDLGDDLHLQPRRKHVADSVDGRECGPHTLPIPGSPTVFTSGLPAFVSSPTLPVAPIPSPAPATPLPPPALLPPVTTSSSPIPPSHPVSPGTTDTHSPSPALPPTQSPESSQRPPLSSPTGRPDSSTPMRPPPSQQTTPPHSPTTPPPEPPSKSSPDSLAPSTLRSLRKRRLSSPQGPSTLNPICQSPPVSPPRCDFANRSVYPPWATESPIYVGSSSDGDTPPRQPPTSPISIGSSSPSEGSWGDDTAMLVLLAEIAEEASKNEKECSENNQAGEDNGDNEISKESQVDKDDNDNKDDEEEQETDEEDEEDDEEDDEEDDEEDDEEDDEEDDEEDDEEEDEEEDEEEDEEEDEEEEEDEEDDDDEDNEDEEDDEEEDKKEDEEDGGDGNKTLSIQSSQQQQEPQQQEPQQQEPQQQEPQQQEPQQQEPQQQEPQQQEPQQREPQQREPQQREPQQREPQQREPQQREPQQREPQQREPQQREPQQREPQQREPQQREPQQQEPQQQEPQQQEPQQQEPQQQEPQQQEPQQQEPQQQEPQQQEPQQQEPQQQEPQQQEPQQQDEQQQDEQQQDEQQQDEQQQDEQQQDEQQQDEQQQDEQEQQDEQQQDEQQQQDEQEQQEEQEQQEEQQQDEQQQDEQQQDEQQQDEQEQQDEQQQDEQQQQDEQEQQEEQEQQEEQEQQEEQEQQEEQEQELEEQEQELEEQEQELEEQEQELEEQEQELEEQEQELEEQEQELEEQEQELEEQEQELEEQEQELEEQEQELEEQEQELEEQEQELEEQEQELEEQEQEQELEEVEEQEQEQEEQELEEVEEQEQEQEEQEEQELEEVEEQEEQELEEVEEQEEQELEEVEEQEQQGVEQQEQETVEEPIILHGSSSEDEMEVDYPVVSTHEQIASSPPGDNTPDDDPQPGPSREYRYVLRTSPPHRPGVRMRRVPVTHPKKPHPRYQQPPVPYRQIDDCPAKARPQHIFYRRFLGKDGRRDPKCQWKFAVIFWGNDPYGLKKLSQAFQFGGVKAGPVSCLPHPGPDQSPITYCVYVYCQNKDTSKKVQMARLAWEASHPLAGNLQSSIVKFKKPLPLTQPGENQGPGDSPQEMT
Calb FLC: affects C. albicans growth with fluconazole; C. albicans CaCi-2 (fluconazole-resistant clinical isolate) + fluconazole, Alamar Blue growth, 48 h; growth inhibition, % (test concentration not listed); 300,000 tested, 0.57% active; AID 1979;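 active = most replicates above 75%; inconclusive = exactly half above 75%; inactive = most below 75%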;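 note: all wells also contain fluconazole at 8 µg/ml as a sub-toxic cotreatment; 0% = median of DMSO wells and 100% = median of geldanamycin control wells; wells of about 8 µL received 7.5 nL stock; the first replicate is given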
Beta2AR agonist: human beta-2 adrenergic receptor agonism by FAP. Am2.2-beta2AR cells, FAP receptor internalization, flow cytometry; reference of the scale not given here. AID 504454. 340,000 tested, 0.43% active. response, % (no concentration beside the values);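 active = response above a set limit, near 3 SD of response in nonfluorescent compounds, cut at about 42% in these data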;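 note: stock transfer was 100 nL into about 11 µL; a reference agonist was the positive control; negative values mostly stem from fluorescent compounds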
rRNA inh HTS OD600: recorded beside rRNA inh HTS, whose call it bears; OD600 change, %; measured here: OD600 growth;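 optical density of the mix in the first replicate; 0 = DMSO median and -100 = no signal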
rRNA inh HTS RFP: recorded beside rRNA inh HTS, whose call it bears; RFP signal change, %; measured here: RFP humanized mutant strains;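 first replicate; 0 = DMSO median and -100 = no signal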
* marks the source's active call; other numbers are inactive results; ? = inconclusive; / = no result given. This is a subset, so the mix of outcomes need not match the whole.

SMILES	T cruzi inh	ALR inh	Beta apoptosis	A1 inh	rRNA inh HTS	rRNA inh HTS OD600	rRNA inh HTS RFP	LANA-H2A inh	Calb FLC	Beta2AR agonist
CC1CCCCN1C(=O)CCC(=O)Nc1nnc(C2CCCCC2)s1 (configuration not stated)	-1.4	1.4	/	1.3	-5.2	-10.4	0.2	-3.9	0.1	1.3
COc1ccc(C(CNC(=O)CSc2ccc(Br)cc2)N2CCOCC2)cc1 (configuration not stated)	-9.2	-2.7	-1.1	-0.1	-0.2	3.1	1.8	-3.1	-2.1	1.6
CCN(C[C@H]1N[C@@](Cc2ccccc2)(C(=O)OC)[C@H]2C(=O)N(C)C(=O)[C@@H]12)C(=O)c1ccccc1	/	-1.2	-13.7	-0.4	2.8	12.7	0.0	/	/	-5.5
COc1cc2c(cc1OC)-c1cc(Nc3cccc(C)c3)nc(=O)n1CC2	-7.1	-4.0	7.6	0.7	10.1	11.8	-1.9	-1.9	-0.4	20.0
COc1ccccc1CNC(=O)Cn1cnc2ccccc2c1=O	0.1	-3.5	-5.1	0.2	/	/	/	0.7	-6.4	6.2
CC(=O)c1ccc([N+](=O)[O-])c(CS(=O)(=O)c2ccc(Cl)cc2)c1	-0.9	-0.5	-2.7	-0.1	4.0	7.0	-0.3	-4.5	2.2	-2.5
COc1ccc(NC(=O)Cn2nnc(C(=O)Nc3ccc(F)c(Cl)c3)c2N)cc1	9.7	1.5	0.6	-0.1	3.4	15.8	0.8	6.1	18.7	-0.6
O=C(Nc1cc(S(=O)(=O)N2CCOCC2)ccc1N1CCOCC1)c1ccccc1Cl	/	-3.1	-4.9	0.7	-10.0	-14.2	-1.6	3.0	/	6.8
COc1ccc(-c2nc(-c3ccncc3)no2)cc1OC	-0.7	1.8	-1.7	-4.6	/	/	/	0.7	102.2*	2.4
O=C(COC(=O)CCc1ccc(S(=O)(=O)N2CCOCC2)cc1)NCc1ccccc1Cl	-5.2	-2.8	-5.9	-0.1	-1.4	-3.3	-0.5	-2.9	4.0	-3.1
CCOC(=O)C1(C)Oc2cccnc2NC1=O (configuration not stated)	6.6	-7.8	-4.2	0.2	17.4	11.8	-4.3	-1.0	-6.2	-1.1
O=C(NCC1(N2CCOCC2)CCCCC1)c1cccc(S(=O)(=O)Nc2ccc(F)cc2)c1	/	/	-3.8	0.2	0.1	-30.4	-1.5	-4.6	/	9.1
CCCCNC(=S)N1CCn2cccc2C1c1ccc(F)cc1 (configuration not stated)	10.3	-2.6	-2.1	1.0	-40.2	-51.2	-8.4	1.7	-10.1	-6.8
CCN(c1ccccc1)S(=O)(=O)c1ccc(NC(=S)NC(=O)c2ccc(Br)o2)cc1	27.1	-18.4	-1.9	1.1	/	/	/	-4.1	6.7	5.3
CC(NC(=O)CSc1n[nH]c(=O)[nH]c1=O)C1CC2CCC1C2 (configuration not stated)	-6.5	-1.2	-2.8	0.9	7.5	4.8	-1.6	0.6	1.0	-5.5
Cc1cc2c(c(SCC(=O)NCc3ccc(Cl)cc3)n1)C(=O)OC2	9.3	-11.6	0.6	1.2	3.0	0.5	-1.3	3.1	4.0	-15.2
COC(=O)C1=C(C(=O)OC)SC(=C2C(=S)C(C)(C)N(C(=O)C(C)C)c3ccccc32)S1	-1.4	1.4	15.3	-0.7	/	/	/	-0.5	-12.2	0.4
CC1(C)CNC(=O)c2sc(N3CCOCC3)nc2C1	7.0	3.6	2.7	0.7	15.8	7.0	1.3	4.7	6.9	-1.4
O=C(O)c1ccccc1Nc1ccnc(Cl)n1	-7.2	1.2	-2.4	-2.2	11.9	0.2	0.6	4.4	7.7	-0.2
Cc1ccnc(SCCn2c(N(C)Cc3ccccc3)nc3c2c(=O)n(C)c(=O)n3C)n1	8.6	-45.8	-2.1	0.1	-6.8	-14.1	0.2	5.2	4.4	-12.7
COC(=O)c1ccccc1NC(=S)NC(=O)c1ccccc1C	-12.9	97.4*	-5.4	-0.6	/	/	/	-4.9	?	0.6
NC(=O)c1nsc(C(=O)N(c2cccc(F)c2)C(C(=O)NC2CCCC2)c2ccco2)c1N (configuration not stated)	-8.3	2.6	0.8	-0.1	9.5	12.4	0.5	-0.8	-14.7	-5.3
O=C(CSc1nc(O)c(Cc2ccccc2)c(=O)[nH]1)Nc1ccccc1	-7.1	98.7*	-11.7	2.1	/	/	/	8.4	3.0	10.6
CCOC(=O)c1cccc(NC(=O)N2CCOCC2)c1	-2.7	/	-4.5	0.1	-0.8	0.5	9.8	-4.4	-4.4	0.1
Cc1cccc(N2CCN(C(=O)c3ccc(N4CCCC4=O)cc3)CC2C)c1 (configuration not stated)	13.8	73.8	4.6	1.3	/	/	/	1.6	-3.0	-7.3
COc1ccc(NC(=S)NNc2ccc(C(=O)O)cc2)cc1	-9.3	5.5	/	1.5	-6.8	-2.8	-5.5	-1.0	-5.4	-9.0
CCCN1C(=O)CN(C2CCCCCC2)C(=O)C1c1ccc(C)cc1 (configuration not stated)	9.8	15.0	9.0	-0.2	/	/	/	0.6	-19.0	0.5
C=CCOc1ccc2ccccc2c1CNn1c(C)n[nH]c1=S	0.2	/	-3.8	1.9	-2.3	4.2	4.3	-8.1	14.4	0.7
O=C(NC(=S)NCC1CCCO1)c1ccco1 (configuration not stated)	-9.9	74.1	0.3	0.1	-1.4	-0.9	-1.4	-0.9	1.5	-6.5
O=C(CNC(=O)c1ccccc1F)NCCc1ccc(Cl)cc1Cl	-5.4	-0.9	0.4	0.5	0.9	-6.5	1.3	2.8	-4.7	6.0
COC(=O)C(=CC(=CN(C)C)C=C(C(=O)OC)C(=O)OC)C(=O)OC	-0.2	/	-1.0	-0.1	6.3	5.8	6.3	1.8	-3.8	-6.3
Cc1ccc(S(=O)(=O)N2CCSC2c2ccco2)cc1 (configuration not stated)	/	6.4	-8.5	0.2	/	/	/	-1.7	-3.6	0.1
Cc1ccc(C2C(C(=O)c3cccs3)=C(O)C(=O)N2c2cccc(C)n2)cc1 (configuration not stated)	-2.7	24.1	-2.1	-0.7	-14.7*	4.4*	2.4*	-3.3	41.3	0.4
CCn1c(SCC(=O)c2c[nH]c3ccccc23)nc2cc(S(=O)(=O)N3CCOCC3)ccc21	27.3	32.1	5.3	0.2	/	/	/	-3.6	-0.9	-11.7
COc1ccccc1C1C=C(c2ccc(C)cc2)Nc2nnnn21 (configuration not stated)	1.0	-2.1	1.8	1.2	/	/	/	-0.2	6.4	-2.0
c1ccc(-n2ncc3c(NCCN4CCOCC4)ncnc32)cc1	-1.9	-2.4	-7.4	-0.7	/	/	/	3.7	-0.4	4.6
COc1ccc(NC(=O)CCc2nnc3ccc(N4CCC(C)CC4)nn23)cc1OC	-10.5	-32.8	-3.2	0.1	-0.8	3.2	0.6	-0.7	4.6	-1.8
CN(C)S(=O)(=O)c1ccc(C(=O)Nc2ccccc2SCCC#N)cc1	8.8	5.8	-3.8	0.1	0.3	0.4	-0.7	-0.1	27.4	1.5
COC(=O)c1ccc(C(=O)OC)c(NC(=O)N2c3ccccc3Sc3ccccc32)c1	7.9	21.0	10.4	0.2	13.8	3.5	3.1	-4.6	33.6	-3.9
Oc1ccccc1C(=S)N1CCN(C(=S)c2ccccc2O)CC1	3.8	0.4	-0.4	-0.2	-1.4	0.2	-2.1	-0.4	3.8	1.1
O=C(c1c[nH]c2ccccc2c1=O)N1CCCCCC1	-1.4	-4.6	-0.6	-0.1	6.8	-12.3	0.4	2.4	2.2	-7.9
Cc1cccc(C)c1NC(=O)CN(C)C(=O)Cc1cccc(C(F)(F)F)c1	7.1	-13.2	-0.2	0.0	8.4	14.6	1.7	-2.9	2.4	1.2
CCN1CCN(c2ncnc3sc(C(=O)Nc4ccccc4F)c(C)c23)CC1	39.2	/	2.0	-1.1	/	/	/	-9.8	40.0	-19.9
CCOC(=O)CN1NC2(CCC(C(C)(C)C)CC2)NC1=S (configuration not stated)	-10.1	-0.1	-2.0	0.0	/	/	/	-7.7	-9.1	16.8
Cc1cccc(OCCCn2c(=O)oc3ccc(C)cc32)c1	7.7	8.5	-0.1	1.5	-24.2	-38.9	-4.4	1.3	-3.9	-6.3
O/N=C1\CC/C(=N\O)c2nn(-c3ccc(Cl)cc3Cl)nc21	-17.0	9.8	0.8	0.3	-0.1	11.1	12.2	-4.4	-1.5	-7.5
COC(=O)c1ccccc1NC(=O)COC(C)=O	-9.6	5.2	-0.4	0.3	/	/	/	-2.6	-2.9	-2.0
O=C(c1ccccc1)N(Cc1ccc(F)cc1)Cc1nc2ccccc2c(=O)[nH]1	0.4	0.5	-1.1	0.2	/	/	/	-9.4	7.6	2.6
CCOC(=O)c1cn(Cc2ccc(C)cc2)c2cc(F)ccc2c1=O	-1.1	-9.6	1.4	-1.9	5.4	6.2	-0.6	1.8	11.8	7.2
Cc1ccc(NC(=O)C(Cc2ccccc2)N2C(=O)C3C4CCC(C4)C3C2=O)cc1Cl (configuration not stated)	77.8*	-20.9	5.9	-0.1	/	/	/	-0.5	-2.9	1.8
COc1ccc(NC(=O)CSc2nnc(NC(=O)C3CCC3)s2)c(OC)c1	14.5	-3.9	3.3	-0.3	3.7	4.6	-2.5	-3.7	-5.6	-5.5
Cc1nn(C)c(C)c1NC(=O)CCCSc1nc(-c2ccco2)cc(C(F)(F)F)n1	-10.2	-1.1	4.5	0.0	/	/	/	-0.7	-3.7	-8.7

Five of the entries above in order of the LANA-H2A inh value, falling:
smiles	ALR inh	rRNA inh HTS	rRNA inh HTS OD600	rRNA inh HTS RFP	LANA-H2A inh	Beta2AR agonist
CCOC(=O)c1cn(Cc2ccc(C)cc2)c2cc(F)ccc2c1=O	-9.6	5.4	6.2	-0.6	1.8	7.2
COC(=O)c1ccccc1NC(=O)COC(C)=O	5.2	/	/	/	-2.6	-2.0
CCOC(=O)CN1NC2(CCC(C(C)(C)C)CC2)NC1=S (configuration not stated)	-0.1	/	/	/	-7.7	16.8
O=C(c1ccccc1)N(Cc1ccc(F)cc1)Cc1nc2ccccc2c(=O)[nH]1	0.5	/	/	/	-9.4	2.6
CCN1CCN(c2ncnc3sc(C(=O)Nc4ccccc4F)c(C)c23)CC1	/	/	/	/	-9.8	-19.9

Two entries picked at random from the list so far:
SMILES	T cruzi inh	ALR inh	Beta apoptosis	A1 inh	rRNA inh HTS	rRNA inh HTS OD600	rRNA inh HTS RFP	LANA-H2A inh	Calb FLC	Beta2AR agonist
CCOC(=O)CN1NC2(CCC(C(C)(C)C)CC2)NC1=S (configuration not stated)	-10.1	-0.1	-2.0	0.0	/	/	/	-7.7	-9.1	16.8
COc1ccc(NC(=O)CSc2nnc(NC(=O)C3CCC3)s2)c(OC)c1	14.5	-3.9	3.3	-0.3	3.7	4.6	-2.5	-3.7	-5.6	-5.5
